Vaccinia Venus: inhibitors of vaccinia virus (Venus reporter); Vaccinia virus Venus reporter expression, fluorescence; Potency, µM (series often up to 36.5 µM), for the others: top-dose activity change, negative = inhibition, actives largely listed as inhibitors; 0.46% of 330,000 active; active means well fitted inhibition curve with a large enough effect; inconclusive means small, poorly fitted or top-dose-only effect; inactive means no such curve, though single readings can be large or run the other way; tested in A549 cells; also: nearly all actives have a fitted effect of over 30% in size; inactives centre near -10
VACV mCherry inh: inhibitors of vaccinia virus infection (mCherry reporter signal) | AID 720579 | Vaccinia virus mCherry reporter infection, fluorescence; about a quarter of the inactives have no number | 0.63% of 310,000 active | Potency, µM (doses to about 36.5 µM), inactives show at the top dose activity change, negative = inhibition, actives largely listed as inhibitors; active = well fitted inhibition curve with a large enough effect; inconclusive = small, poorly fitted or top-dose-only effect; inactive = no such curve, though single readings can be large or run the other way; tested in A549 cells; also: nearly all actives have a fitted effect of over 35% in size; inactives centre near -10
* marks the source's active call; other numbers are inactive results; i = inactive; ? = inconclusive; . = no result given; & = joins results of further samples; [ ] = another dose, or the depositor's remark. % is scaled to controls: 0 for no effect and ±100 for the full control effect; potency is read from the fitted curve at half-maximal effect.

SMILES	Vaccinia Venus	VACV mCherry inh
COc1ccc(C(CNC(=O)c2cccc(S(=O)(=O)Nc3ccc(C)cc3)c2)N2CCOCC2)cc1 (configuration not stated)	-19.0%	-16.3%
Cc1ccc(CNC(=O)CN2C(=O)COc3ccc(S(=O)(=O)Nc4ccccc4)cc32)cc1	-6.4%	-2.1%
O=c1[nH]n(CC2COC3(CCCCC3)O2)c(=O)c2ccccc12 (configuration not stated)	0.4%	-11.9%
O=C(O)C1CCCN(S(=O)(=O)c2ccc(Cl)s2)C1 (configuration not stated)	-4.1%	8.3%
COc1ccc(C2C3=C(N=C4SCC(=O)N42)c2ccccc2CC3)cc1OC (configuration not stated)	-15.4%	i
CC(C)(C)NC[C@H](O)COc1nsnc1N1CCOCC1	-3.8%&-7.6%&-15.4%	-21.4%&-2.7%
COc1ccc(OC)c(NC(=O)CSc2nncc3ccccc23)c1	-14.3%	-9.4%
COc1ccc(OC)c(C2C(C(=O)Nc3ccccc3OC)=C(C)Nc3nc(CCCO)nn32)c1 (configuration not stated)	-9.4%	-1.1%

(listing goes on)
SMILES	Vaccinia Venus	VACV mCherry inh
COC(=O)CCC(=O)OC1(C)C(=O)C=C2C=C(C3CC3)N(CCc3c[nH]c4ccccc34)C=C2C1=O (configuration not stated)	-9.1%	i
CCOc1ccc(NS(=O)(=O)c2ccc(NC(=O)[C@@H]3CCCC[C@@H]3C(=O)O)cc2)cc1	-6.4%	-0.2%
Fc1cc(F)c2nc(Nc3nc4c(F)cccc4s3)sc2c1	-22.9%	i
CCCCNC(=O)C[C@@H]1C[C@@]2(C(=O)OCC)CCCC=C2N(CCC2=CCCCC2)C1=O	-16.7%	-22.1%
COc1cc(NC(=S)Nc2ccc(Br)cc2Cl)c(OC)cc1Cl	-15.3%	-4.3%
COc1ccc(C)c2sc(N(Cc3cccnc3)C(=O)c3cccs3)nc12	-10.9%	-18.4%
CCCCNC(=O)c1ccc(N2CCC3(CC2)OCCO3)c([N+](=O)[O-])c1	-2.8%	-13.8%
CC1Cc2ccccc2N1C(=O)CCS(=O)(=O)c1cccs1 (configuration not stated)	-6.1%	-18.9%

(further entries)
SMILES	Vaccinia Venus	VACV mCherry inh
CCCN(CCC)C(=O)Cn1c(=O)n(-c2ccc(Cl)cc2)c(=O)c2c3c(sc21)CCCC3	-16.0%	-5.8%
CC(C)C[C@H](NC(=O)Nc1ccc(Oc2ccccc2)cc1)C(=O)O	-3.8%	-5.5%
CCCCC1(CC(=O)OCC)SCCN1C(N)=O (configuration not stated)	-8.9%	i
C1=CC2CCC1ON2c1ccccc1 (configuration not stated)	-16.5%	-4.2%
COc1ccc(CN(C)Cc2nc(Cc3ccccc3Cl)no2)cc1OC	-7.3%	-8.3%
CNC(=O)Nc1cccc2cccnc12	?	-4.0%[7.34 µM]
CC(C)NC(=O)/C(=C/c1ccco1)c1ccccc1	-23.9%	.
CCn1c(C)nc2cc(C(=O)NNS(=O)(=O)c3ccc(C)c(C)c3)ccc21	-12.2%	.

Going on with the list:
SMILES	Vaccinia Venus	VACV mCherry inh
Cc1noc(C)c1NC(=O)N(C)C[C@@H]1Oc2cc(Br)ccc2S(=O)(=O)N([C@H](C)CO)C[C@@H]1C	-8.1%	-24.5%
Cc1ccc(C(O)(COC(=O)C(C)C)COC(=O)C(C)C)c(O)c1	-3.8%	i
COc1cc(NC(=O)Cc2ccccc2)c(C(=O)O)cc1OC	-5.8%	-16.1%
O=c1ccc2ccc(Oc3ccc(Cl)cc3[N+](=O)[O-])cc2o1	-13.4%	3.9%
Cc1ccc(S(=O)(=O)Nc2ccccc2C(=O)Nc2nc(-c3ccc(F)cc3)cs2)cc1	?	?
Cc1ccc(NS(=O)(=O)N2CCCCC2)cc1	-6.3%	i
C[C@]12CC[C@@H](O)C[C@H]1CC[C@@H]1[C@@H]2CC[C@]2(C)C(=O)CC[C@@H]12	-17.2%	i
COc1cc(S(=O)(=O)NCc2ccncc2)c(OC)cc1Br	-11.7%	-3.3%

Next section:
SMILES	Vaccinia Venus	VACV mCherry inh
Cc1nnsc1C(=O)Oc1ccc(Cl)cc1	-0.9%	-1.1%
Cc1nc2c3cccnc3nn2c(C)c1CCC(=O)NCc1ccccc1	-10.2%	-10.2%
CCCN1C(=O)COc2ccc(-c3n[nH]c(=O)c4ccccc34)cc21	-25.7%	-17.5%
CCOC(=O)C(Cc1cc(C(C)=O)ccc1OC(C)C)C(=O)OCC	-21.6%	.
Cc1ccc(S(=O)(=O)NCCC(=O)Nc2ccc(C)c(Cl)c2)cc1C	-26.2%	-1.1%
O=C(COC(=O)C1=COCCO1)Nc1ccc(F)c(F)c1	-11.5%	-15.7%
Cc1cnc(C)c(-c2cccc3c2OC(CNC(=O)C[C@@H]2C[C@@H](C)NC(=S)N2)C3)n1 (some centres not stated)	2.9%	-9.8%
CC1Oc2cc3oc4c(O)c5c(cc4c(=O)c3c(O)c2C1(C)C)C=CC(C)(C)O5 (configuration not stated)	-12.8%	-14.9%

Later entries
SMILES	Vaccinia Venus	VACV mCherry inh
O=C(CCOc1ccccc1)N1CCN(S(=O)(=O)c2ccccc2F)CC1	-15.0%	-16.2%
O=S1(=O)C[C@H](N2CCC[C@@H]2CO)[C@@H](COCc2ccccc2)N1	-5.7%	i
NC(Cc1ccccc1)c1csc(Nc2ccc(C(=O)c3ccccc3)cc2)n1 (configuration not stated)	?	?
CC(C)c1csc(CN2CCCC(CNC(=O)c3cccc4ccccc34)C2)n1 (configuration not stated)	-25.8%	-7.3%
CCOc1ccccc1CNC(=O)C1CCCN(c2ncnc3onc(-c4ccc(F)cc4)c23)C1 (configuration not stated)	-19.2%	-15.4%
COc1ccccc1OCc1nnc(SCC(=O)N2CCCC2)o1	5.5%	9.5%
Cc1ccc(-n2c(-c3ccc(Br)cc3)nc3c(cnn3-c3ccccc3)c2=O)cc1	-12.6%	-14.6%
Nn1c(SCC(=O)Nc2cc(S(=O)(=O)N3CCOCC3)ccc2Cl)nnc1-c1cccnc1	-9.2%	-5.2%

(next part)
SMILES	Vaccinia Venus	VACV mCherry inh
CCC1Oc2ccc(C)cc2N(CC(=O)NCCN2CCOCC2)C1=O (configuration not stated)	-4.4%	-29.0%
Cc1ccc(-c2cc3nc(-c4ccccc4)cc(C(F)(F)F)n3n2)cc1	10.6%	-5.1%
CC(C)OCCCNC(=O)C1CCC(CNS(=O)(=O)c2ccccc2)CC1 (configuration not stated)	-3.0%	-11.9%
Cc1c(NC(=O)c2ccccc2F)cccc1-c1nc2cccnc2s1	-16.1%	-22.1%
CCC1(CC)C(=O)N(C)C(=O)NC1=Nc1ccc(OC)cc1	-21.2%	.
O=C(c1cn(Cc2ccccc2)c2ccccc12)N1CCCCC1	-18.3%	-14.9%
O=C(O)c1cccc(S(=O)(=O)NCc2cccs2)c1	-13.5%	i
CCOc1ccc(OCc2ccc(C(=O)Nc3ccc(Cl)cn3)o2)cc1	1.7%	-0.4%

(listing goes on)
SMILES	Vaccinia Venus	VACV mCherry inh
Cc1ccc(/C=N/n2cnc3sc(-c4ccccc4)cc3c2=O)o1	-9.0%	i
NC(=S)c1cc2cc(Br)ccc2oc1=O	-16.4%	-13.3%
COc1ccc(OCC2c3cc(OC)c(OC)cc3CCN2C(=O)COc2ccc(Cl)cc2Cl)cc1 (configuration not stated)	2.5%	-0.7%
O=C(C1=C(O)C(=O)N(CCN2CCOCC2)C1c1cccc(Br)c1)c1cccs1 (configuration not stated)	-8.9%	i
COc1ccccc1CNc1nc(NCc2ccc(C(C)C)cc2)c2sccc2n1	-24.4%	-8.0%
CN(C(=O)c1ccc(NC(=O)Cc2cccc(NC(=O)C3CCN(C(=O)c4ccccc4)CC3)c2)cc1)C1CCCC1	-13.7%	-13.9%
CC(=O)Nc1nc2c(s1)C(=O)NCCC2	-11.0%	-5.0%
CCOC(=O)C1C(=O)NCC2CCCC21 (configuration not stated)	-8.2%	.

Further structures follow:
SMILES	Vaccinia Venus	VACV mCherry inh
Oc1ccc2nc(Cc3ccccc3)[nH]c2c1	-0.6%	-9.9%
COC(=O)Nc1nn(-c2ccc(C)cc2)c(=O)c(C#N)c1C	-13.1%	-13.1%
CC(C)Cc1nnc(N)s1	-10.0%	-12.1%
O=C(CN(c1ccccc1)S(=O)(=O)c1ccccc1)N1CCN(Cc2ccc3c(c2)OCO3)CC1	-15.0%	-29.9%
COCC(=O)Nc1cc(C(=O)NC2CCc3ccccc32)c2c(c1)nc(-c1ccncc1)n2C (configuration not stated)	16.0%	1.7%
O=C(NCCCN1CCOCC1)c1ccc2c(=O)n(-c3ccc(F)c(Cl)c3)c(=S)[nH]c2c1	-5.9%	-21.0%
CN(Cc1ccccc1)C(=O)c1cccc(NC(=O)Cc2ccc(NC(=O)C3CCCN(C(=O)C4CC4)C3)cc2)c1 (configuration not stated)	-17.5%	i
CCn1c(SCc2cc(=O)[nH]c3ccccc23)nnc1C1CC1	-7.1%	-10.8%

(more compounds)
SMILES	Vaccinia Venus	VACV mCherry inh
O=C(NCC1COc2ccccc2O1)C1CCCN(S(=O)(=O)c2cnc[nH]2)C1 (configuration not stated)	1.1%	5.3%
COCCNc1oc(-c2ccc(OC)cc2)nc1C#N	?	?
COC(=O)c1ccc(NC(=O)CSc2nnc(CNc3ccc(OC)cc3)n2C)cc1	12.6µM*	-12.7%[1.46 µM]
Cn1c(Sc2ccccc2Cl)c(C=O)c2ccccc21	-14.6%	-24.9%
O=C(OC(C(=O)Nc1ccc(Cl)cc1C(F)(F)F)c1ccccc1)C1=COCCO1 (configuration not stated)	-3.1%	-7.8%
CCCS(=O)(=O)NCc1cn2c(C)csc2n1	2.6%	30.8%[activator]
CC(C)C[C@H]1CNC(=S)N1CC1CCN(CC2CCC(C(C)(C)C)CC2)CC1 (some centres not stated)	?	?
COc1ccc(C(=O)c2ccc(O)cc2)c(O)c1O	-3.3%	-6.6%

Next section
SMILES	Vaccinia Venus	VACV mCherry inh
O=[N+]([O-])c1ccc(O)c(-c2nn[nH]n2)c1	-13.7%	-14.7%
COC(=O)[C@@]12C[C@@H](CC(=O)N3CCSCC3)C(=O)N(Cc3cccc4ccccc34)C1=CCC(C)(C)C2	?	?
O=C(CSc1nc2c(c(=O)n1-c1ccc(Cl)cc1)SCC2)Nc1ccc2c(c1)OCCO2	-15.7%	i
COc1ccccc1Nc1nc(N)nc(CSC(=S)N2CC(C)CC(C)C2)n1 (configuration not stated)	-23.8%	-10.6%
O=C1C2C3CCC(C3)C2C(=O)N1Cc1ccccc1 (configuration not stated)	-7.8%	-14.6%
Cc1ccccc1CSCC(=O)NC(=O)NC(C)(C)C	-12.2%	i
O=c1c2c(-c3ccccc3)csc2nc2c3ccccc3c(NCCN3CCOCC3)nn12	?	-24.6%
CSc1ccc(Cn2c(C)c(C(=O)NCc3ccc(F)cc3)sc2=O)cc1	-12.6%	-4.2%

(cont.)
SMILES	Vaccinia Venus	VACV mCherry inh
Cc1cc(NC(=O)CSc2nc3ccccc3[nH]2)no1	-19.0%	-26.7%
CCCCCCSc1ccc(-c2nc3ccc(Cl)cn3c2NC2CCCCC2)cc1	-16.5%	i
Cc1ccc(Cn2ccc(NC(=O)c3c(-c4ccccc4Cl)noc3C)n2)cc1	-27.1%	-1.9%[1.46 µM]
CCOC(=O)c1c(NC(=O)c2cc(=O)c3c(C)cc(C)cc3o2)sc2c1CCC2	-5.2%	7.6%
COCc1cc(C)nc(SCC(=O)Nc2ccccc2N2CCOCC2)c1C#N	-23.4%	-11.8%
Cc1ccc(NC(=O)Nc2nnc(-c3ccccc3)o2)cc1	7.1%	i
Cc1ccc2nc(CNC(=O)c3ccccc3)[nH]c2c1	-9.6%	-8.8%
CC(=O)c1ccccc1OCCOc1ncnc2sccc12	-5.6%	-6.2%

(continued)
SMILES	Vaccinia Venus	VACV mCherry inh
S=C(NCCCn1ccnc1)NC1CCCCC1	-5.1%	-2.0%
Cc1cc(NC2CCCCC2)nc2ccccc12	?	?
COc1ccc(-c2cnc3c(-c4ccc(F)cc4)cnn3c2N)cc1	-11.6%	-9.2%
O=C(COc1ccc(-c2nnco2)cc1)Nc1c(Cl)cccc1C(F)(F)F	-13.2%	-21.1%
Cc1cc(C)n(C/C=C/Cn2nc(C)cc2C)n1	-2.8%	-4.4%
Cc1cccc(NC(=O)CCS(=O)(=O)c2cc(Br)cc3c2N(C(=O)C2CC2)CC3)c1	-4.2%	-10.5%
O=S1(=O)N=C2CCCCCN2C(c2ccc(Br)cc2)N1 (configuration not stated)	-18.0%	i
COCCN(C(=O)CCC(=O)Nc1nccs1)C(C(=O)NCCC(C)C)c1ccc(OC)cc1 (configuration not stated)	4.7%	-10.0%
Cc1ccc(/C=N/NC(=O)c2nn(C)cc2Cl)cc1	-11.3%	-15.1%
CCCCCC(=O)Nc1ccc(C(=O)N/N=C/c2ccc([N+](=O)[O-])cc2)cc1	-5.6%	-18.2%
CCNC(=S)N=Nc1c(O)[nH]c2ccc([N+](=O)[O-])cc12	-20.1%	?

A second format for some results above:
S=C(NCCCn1ccnc1)NC1CCCCC1
  Vaccinia Venus: -5.1%
  VACV mCherry inh: -2.0%
Cc1ccc(/C=N/NC(=O)c2nn(C)cc2Cl)cc1
  Vaccinia Venus: -11.3%
  VACV mCherry inh: -15.1%
O=C(COc1ccc(-c2nnco2)cc1)Nc1c(Cl)cccc1C(F)(F)F
  Vaccinia Venus: -13.2%
  VACV mCherry inh: -21.1%
Cc1cc(NC2CCCCC2)nc2ccccc12
  Vaccinia Venus: ?
  VACV mCherry inh: ?

Source: PubChem (National Center for Advancing Translational Sciences (NCATS))
